Screening data as filed in PubChem BioAssay.
Mtb hypoxia inh – PubChem AID 1159583; actives 0.1% (n = 300,000); fluorescence inhibition, % (test concentration not listed); M. tuberculosis hypoxia-regulated fluorescent reporter, fluorescence;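 active = 35 to 45% if threefold the growth effect, above 45% if 1.5-fold the growth effect; inactive = the rest, general growth blockers included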;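 also: wells of about 50 µL received 100 nL stock; 0% = vehicle wells and 100% = reference inhibitor wells; whole bacteria with a GFP reporter of the hypoxia response; strong numbers were not always called active; many hits fall short of the cut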
RN4220 kill – growth inhibition of S. aureus RN4220, primary screen, OD600; inhibition, % (concentration not given with the values); actives 0.33% (n = 330,000); 16 h;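 active = z-score of -3 or lower and OD600 up to 0.18 on both plates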;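 also: plate controls were untreated cells for no effect and reference antibiotic for full effect; stock transfer was 100 nL into about 80 µL; one replicate is shown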
Autofluor counter – compound fluorescence in toxin protease inhibitor counterscreen | compound autofluorescence counterscreen, microsphere flow cytometry; stronger effect = higher value | fluorescence intensity (no concentration beside the values) | actives 3.1% (n = 360,000) | AID 624483;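 active = at least 3 SD above the mean of all compounds, about 16000 in these data; inconclusive = too few beads counted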;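 also: 100 nL of 1 mM stock went into each well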
ugtP null kill – growth inhibition of ugtP-null S. aureus, primary screen, RN4220 ugtP deletion, OD600; 16 h; some inactives read as strong as hits; growth inhibition, % (no concentration beside the values); actives 0.54% (n = 330,000);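 active = z-score under -3 and OD600 up to 0.15 on both plates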;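 also: plate controls were untreated wells for no effect and antibiotic for full effect; wells of about 80 µL received 100 nL stock; the first replicate is given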
BJeLR lethal – MLPCN primary cell-based screen for lethality selective to Ras in HRASV12 cells; BJeLR (HRASV12) viability, CellTiter-Glo ATP luminescence, 48 h; reference of the scale not given here; inhibition, % (no concentration beside the values); actives 0.17% (n = 300,000); AID 1554, 2009;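 active = replicate mean above 50%; inconclusive = above 50% but judged a plate artefact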;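 also: 50 nL library stock added to about 25 µL; numbers are from one replicate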
PrP 5UTR inh – inhibition of PrP 5' UTR reporter expression | cell-based PrP 5' UTR mRNA reporter, plate reader | inhibition, % (no concentration beside the values) | actives 0.35% (n = 340,000) | AID 488862, 2010;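 active = every replicate at 50% or more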;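 also: 0 = median of the neutral control wells; tested in H4 reporter cells; numbers are from one replicate; inactives centre near -14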
Mtb hypoxia inh growth – further read-out of Mtb hypoxia inh, marked with its call; growth inhibition, %; measured here: M. tuberculosis growth (absorbance);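 0% = vehicle and 100% = reference antibiotic; read after six days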
Numbers without * were called inactive; ? = inconclusive; . = no result given.

entry	Structure	BJeLR lethal	RN4220 kill	Mtb hypoxia inh growth	Mtb hypoxia inh
1	O=C(NN=Cc1cccc([N+](=O)[O-])c1O)C1COc2ccccc2O1 (stereo unspecified)	.	53	3	4
2	COC(=O)c1c(NC(=O)CSc2nncs2)sc2c1CCCCC2	-9	6.6	13	11
3	OC(c1cc(-c2ccc(C(F)(F)F)cc2)nc(C(F)(F)F)c1)C1CCCCN1 (stereo unspecified)	0	-3.8	.	.
4	CCOc1ncccc1C(=O)OCc1ccc(C(=O)OC)cc1	11	1.0	9	12
5	NC(=O)C1CCN(C(=O)CC(c2ccccc2)c2ccccc2)CC1	10	4.6	7	5
6	COc1cc(NC(=S)NCCCN2CCOCC2)cc(OC)c1OC	-5	3.7	-2	1
7	COc1ccc(/C=C/C(=O)c2c(O)ccc3c(C)cc(=O)oc23)cc1	1	4.6	-3	12
8	Cc1[nH]n(-c2ccccc2)c(=O)c1C=NNC(=O)c1cccc(F)c1	.	24	4	15
9	COc1ccc(NC(=O)CSc2nc3ccccc3nc2N2CCCC2)c(OC)c1	-5	-7.1	-4	1
10	Cc1c(Cl)cccc1NS(=O)(=O)c1ccc2c(c1)C1C=CCC1C(c1ccc(C(=O)O)cc1)N2 (stereo unspecified)	.	42	4	3
11	CCCCn1c(CCc2ccccc2)nc2cc3[nH]c(=O)c(C(C)C)nc3cc21	5	7.5	-4	2
12	CN(C)c1ccc(/C=N/NC(=O)c2cccc(N3CCCC3=O)c2)cc1	-9	.	.	.
13	O=C(c1ccco1)N1CCN(C(=S)Nc2ccc(F)cc2)CC1	8	-0.7	-9	3
14	CCCc1ccc(OCc2ccc(C(=O)N3CCCC3)o2)cc1	-1	10	6	8
15	O=C(OCC(=O)N1CCCc2ccccc21)c1cnc(Cl)c(Cl)c1	7	3.4	9	5

entry	PrP 5UTR inh	ugtP null kill	Autofluor counter
1	.	5	.
2	-15	20	12916
3	-14	-13	3290
4	-36	-4	2019
5	-10	6	4043
6	-18	-1	2015
7	-2	89*	2617
8	.	30	.
9	-22	1	4182
10	-32	37	4169
11	-9	5	4693
12	-5	.	2043
13	-21	5	7923
14	-25	21	3681
15	-17	15	2301

Further entries follow.
entry	Structure	BJeLR lethal	RN4220 kill	Mtb hypoxia inh growth	Mtb hypoxia inh
16	Cc1ccc2c(C(=O)CN3CCC(C(N)=O)CC3)c(C)[nH]c2c1	-1	6.2	1	8
17	COc1ccc(-n2nc(C(=O)NCC(=O)Nc3ccccn3)c3ccccc3c2=O)cc1	9	3.1	1	8
18	CCC(CC)C(=O)NCc1ccccc1Cl	2	1.4	.	.
19	NC(=NOC(=O)c1ccc(F)cc1)c1nonc1N	.	-0.8	4	19
20	OC(CN1CCN(Cc2ccccc2)CC1)Cn1c2ccccc2c2ccccc21 (stereo unspecified)	-3	-0.8	5	-4
21	CC(=O)Nc1ccc(SC[C@H](Cc2ccccc2)N2CCN(CCc3ccccc3)CCC2=O)cc1	0	.	.	.
22	Cc1ccc(C)c(NC(=O)C(C)CC2COCCO2)c1 (stereo unspecified)	1	7.5	8	5
23	N/C(=N\OC(=O)C1CCCCC1)c1ccc(Cl)cc1	-7	1.4	3	11
24	Cc1cc(C)nc(SCC(=O)N(C)CC(=O)Nc2c(Cl)cccc2Cl)n1	-5	1.3	1	-9
25	CCCCCn1c(S(=O)(=O)O)nc2ccccc21	-1	7.7	8	9
26	Cc1noc(C)c1C(=O)Nc1nc(-c2cccs2)cs1	.	-0.3	1	4
27	CC(=O)Nc1nc(C)c(Cc2ccccc2)c(=O)[nH]1	7	-2.9	0	-1
28	CC(NC(=O)c1cccc(S(=O)(=O)N2CCN(Cc3ccccc3)CC2)c1)c1ccc(Br)cc1 (stereo unspecified)	-8	-2.3	-2	6
29	Cc1cc(C)c(NC(=O)CSCc2c(C)noc2C)c(Cl)c1	.	11	1	-1
30	O=C(O)CCN1C(=O)c2ccc(NC(=O)CCc3ccccc3)cc2C1=O	-1	4.9	7	7

entry	PrP 5UTR inh	ugtP null kill	Autofluor counter
16	-22	9	3462
17	-25	-9	8960
18	-24	0	3026
19	.	2	.
20	-17	-12	2665
21	-17	.	4288
22	-28	-7	4361
23	-48	9	5738
24	0	1	?
25	-10	-6	8603
26	-24	-3	2689
27	-25	-5	2418
28	-5	-8	4908
29	-4	10	?
30	-22	5	3488

Next part:
entry	Structure	BJeLR lethal	RN4220 kill	Mtb hypoxia inh growth	Mtb hypoxia inh
31	CCN(CC)C(=O)CSc1ncnc2c(-c3ccc(OC)cc3)nsc12	-3	8.3	4	4
32	CCn1c(=O)cc(SCC(=O)N2CCN(C(=O)c3ccco3)CC2)c2ccccc21	-2	-0.2	9	-1
33	Cc1c(NC(=O)c2cc3ccccc3oc2=O)c(=O)n(-c2ccccc2)n1C	-4	-0.3	5	16
34	COc1ccccc1-c1c(C(F)(F)F)oc2cc(OC(=O)c3cccc([N+](=O)[O-])c3C)ccc2c1=O	-9	-0.2	6	2
35	COc1ccc2c(c1OC)C(C1c3c(cc4c(c3OC)OCO4)CCN1C)OC2=O (stereo unspecified)	3	-0.4	0	-1
36	O=C(NCc1ccccc1OC(F)(F)F)C1CCC(=O)N(Cc2ccccn2)C1 (stereo unspecified)	-5	6.9	-9	-4
37	COc1ccc(S(=O)(=O)NCCC(=O)NCc2cccs2)cc1	4	-3.5	11	-5
38	O=C(CSc1nc2ccccc2n1CC(=O)N1CCCC1)Nc1nccs1	-11	7.0	-1	2
39	CCCc1nc2ccccc2c(=O)n1-c1ccc(O)cc1	-2	2.6	-5	5
40	C=CCn1c(SCc2ccccc2C#N)nnc1-c1ccccc1O	5	4.9	10	6
41	CCNc1nc2nonc2nc1NCC	2	-3.4	.	.
42	CCOC(=O)C1CCN(C(=O)c2cnn3c(C)cc(C)nc23)CC1	4	-1.3	.	.
43	O=C(CN1C(=O)C2C3CCC(C3)C2C1=O)OCC(=O)c1cccc([N+](=O)[O-])c1 (stereo unspecified)	-11	-1.7	6	-18
44	Cn1ccnc1SCc1ccc([N+](=O)[O-])cc1	2	3.0	8	9
45	O=C1CC(C(=O)Nc2ccc(C(=O)O)cc2)C(c2ccccc2)O1 (stereo unspecified)	-3	1.4	11	0

entry	PrP 5UTR inh	ugtP null kill	Autofluor counter
31	.	-5	.
32	-4	0	10232
33	-40	7	7707
34	-13	4	5357
35	-7	11	3629
36	-10	13	5050
37	.	-3	11011
38	10	-2	23314*
39	-9	-1	3785
40	-8	-3	21434*
41	-17	8	4757
42	-22	5	2393
43	0	-2	2605
44	-25	-2	19757*
45	-59	3	2379

The results go on.
entry	Structure	BJeLR lethal	RN4220 kill	Mtb hypoxia inh growth	Mtb hypoxia inh
46	CC(C)CCN1CCC(n2nccc2NC(=O)C2CCOC2)CC1 (stereo unspecified)	9	4.1	11	-1
47	O=C(Nc1ccccc1)C(Cc1cccs1)c1nn[nH]n1 (stereo unspecified)	3	-3.6	-1	-11
48	O=C(NCCCC(=O)N1CCOCC1)c1cccnc1	-1	0.7	.	.
49	COc1ccc(N2CCN(c3nc(NCCc4ccc(OC)c(OC)c4)nc(OC)n3)CC2)cc1	3	6.3	9	9
50	CCOC(=O)N1CCC(c2cc(=O)n3[nH]ccc3n2)CC1	-1	-0.9	10	0
51	C=CCNCCCCOc1ccc(OCc2ccccc2)cc1	-4	2.8	6	17
52	CCOc1ccccc1NC(=O)N1CCCc2ccccc21	-2	2.8	7	4
53	CCOc1ccc(NC(=O)c2cc(Cl)nc3ccccc23)cc1	8	13	-1	-2
54	COc1ccc(C(NC(=O)c2ccc(-c3ccccc3)cc2)c2ccccc2)cc1 (stereo unspecified)	-9	-14	-1	2
55	COc1ccc(-c2c(C)oc3c(CN4CCCCC4C)c(O)ccc3c2=O)cc1 (stereo unspecified)	-3	-0.6	4	16
56	COc1ccccc1N1CCN(C(=O)c2cc(-c3ccccc3)on2)CC1	3	6.9	-4	-13
57	O=C(c1ccc(COc2ccc(Cl)cc2)o1)N1N=C(C(F)F)CC1(O)C(F)F (stereo unspecified)	11	9.4	3	-1
58	Nc1cc(N)nc(SCc2cccnc2)n1	-7	-1.2	7	2
59	CCOc1ccc(C2C(C(=O)Nc3ccccc3)=C(C)N=c3s/c(=C/c4cccc(OCC(=O)O)c4)c(=O)n32)cc1 (stereo unspecified)	12	.	.	.
60	CNC(=S)N/N=C/c1cc(C)ccc1C	1	.	.	.

entry	PrP 5UTR inh	ugtP null kill	Autofluor counter
46	-15	5	5123
47	-15	-2	8683
48	1	-1	2645
49	-7	-4	22889*
50	-21	6	5669
51	-50	32	2126
52	-12	5	5600
53	-34	5	3237
54	-13	-7	2523
55	-21	15	3825
56	-37	18	5269
57	-14	-23	1977
58	-50	15	7834
59	-9	.	4910
60	-20	.	3338

(cont.)
entry	Structure	BJeLR lethal	RN4220 kill	Mtb hypoxia inh growth	Mtb hypoxia inh
61	CCn1c(O)c(C=Nc2ccc(N3CCOCC3)c(Br)c2)c(=O)n(CC)c1=S	5	4.7	7	2
62	CC1(C)C2CC=C(C=NNC(=O)c3ccccc3O)C1C2 (stereo unspecified)	.	7.3	7	2
63	CCNc1nc(NCC)nc(SCCOC(=O)c2ccccc2)n1	2	15	12	20
64	COc1cccc2sc(N3CCN(C(=O)c4ccco4)CC3)nc12	-1	1.3	-1	-1
65	Cc1ccccc1Cn1nc(C)c(NC(=O)c2cc(-c3cccs3)on2)c1C	-18	5.5	10	6
66	CCOC(=O)/C(C#N)=N/Nc1c(C)n(C)n(-c2ccccc2)c1=O	1	-0.2	-8	-1
67	COCCCNC(=O)C(=O)NCC(c1ccco1)N1CCN(c2ccc(OC)cc2)CC1 (stereo unspecified)	1	2.4	16	5

entry	PrP 5UTR inh	ugtP null kill	Autofluor counter
61	-25	2	19239*
62	.	2	.
63	-7	2	3407
64	-23	-12	5723
65	-22	-1	10790
66	-3	-4	4387
67	1	-2	5307

An excerpt of these results, as labelled records.
26. Cc1noc(C)c1C(=O)Nc1nc(-c2cccs2)cs1
  BJeLR lethal: .; RN4220 kill: -0.3; Mtb hypoxia inh growth: 1; Mtb hypoxia inh: 4; PrP 5UTR inh: -24; ugtP null kill: -3; Autofluor counter: 2689

13. O=C(c1ccco1)N1CCN(C(=S)Nc2ccc(F)cc2)CC1
  BJeLR lethal: 8; RN4220 kill: -0.7; Mtb hypoxia inh growth: -9; Mtb hypoxia inh: 3; PrP 5UTR inh: -21; ugtP null kill: 5; Autofluor counter: 7923

66. CCOC(=O)/C(C#N)=N/Nc1c(C)n(C)n(-c2ccccc2)c1=O
  BJeLR lethal: 1; RN4220 kill: -0.2; Mtb hypoxia inh growth: -8; Mtb hypoxia inh: -1; PrP 5UTR inh: -3; ugtP null kill: -4; Autofluor counter: 4387

2. COC(=O)c1c(NC(=O)CSc2nncs2)sc2c1CCCCC2
  BJeLR lethal: -9; RN4220 kill: 6.6; Mtb hypoxia inh growth: 13; Mtb hypoxia inh: 11; PrP 5UTR inh: -15; ugtP null kill: 20; Autofluor counter: 12916
